Screening results deposited in PubChem by National Center for Advancing Translational Sciences (NCATS).
Anthrax LT inh: inhibitors of anthrax lethal toxin internalization | Cells, anthrax lethal toxin internalization, FRET ratio (460/530) | Potency, µM (top dose mostly 40 µM), inactives show at the highest dose activity change, negative = inhibition, hits mostly inhibitors | 0.67% of 70,000 active | AID 912; active = well fitted falling ratio curve with the 530 nm signal flat; inconclusive = other ratio curves, or a change in one channel alone; inactive = flat curves in the ratio and both channels; the % refers to the ratio; also: % is scaled to controls: 0 for no effect and ±100 for the full control effect; nearly all actives have a fitted effect of over 50% in size; tested in ME-180 cells; beta-lactamase reporter
SmPrx2 inh: Schistosoma mansoni Prx2 inhibition. 0.07% of 65,000 active. Potency, µM. S. mansoni Prx2 activity coupled to TGR/GSH (TGR is thioredoxin glutathione reductase), NADPH fluorescence loss, qHTS; some inactives read as strong as hits; active means full or partial inhibition curve with a strong effect at the top dose; inconclusive means weaker partial or single-point curve; inactive means no accepted curve; also: series up to 57 µM; many of its hits are not listed in these tables
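Activity is read as the drop in NADPH fluorescence (365/450 nm), recorded every 30 sec for 8 min after H2O2 addition. Prx2 is coupled to TGR-driven NADPH oxidation through glutathione, in phosphate buffer pH 7.4.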
Starred values were filed as active, the others as inactive; [ ] = remark or other dose. Potency is read from the fitted curve at half-maximal effect.

Cn1c(SCC(=O)c2ccc3c(c2)OCO3)nnc1C1COc2ccccc2O1 (centres undefined) was read as Anthrax LT inh -21.8% and SmPrx2 inh >57.
O=C1CCC(=O)N1CNc1cccnc1 was read as Anthrax LT inh -1.5%.
Cc1csc(NC(=O)Nc2ccc(Cl)cc2)n1 was read as Anthrax LT inh 0.5% and SmPrx2 inh >57.
Screening Cc1cc(C)nc(/N=C/c2c(O)n(C)c(=O)n(C)c2=O)n1 returned Anthrax LT inh -6.5% and SmPrx2 inh >57.
For Cc1cccc(CNc2nc(-c3cccc(NS(C)(=O)=O)c3)nc3ccccc23)c1 the results were Anthrax LT inh inconclusive and SmPrx2 inh >57.
`CCOC(=O)CNc1c(-c2ccc(F)cc2)nc2cnccn12` gave Anthrax LT inh inconclusive and SmPrx2 inh >57.
For CCOC(=O)c1c(N)sc2c(O)c(Br)ccc12 the results were Anthrax LT inh -13.5%.
c1ccc(N2CCN(c3nc4ccccc4n4nnnc34)CC2)cc1 was read as Anthrax LT inh inconclusive and SmPrx2 inh >57.
For Cc1ccc(NC(=O)C2C3C=CC4(CN(Cc5cccnc5)C(=O)C24)O3)cc1 (centres undefined) the results were Anthrax LT inh -3.7% and SmPrx2 inh >57.
For COc1cccc(Nc2ncc3nc(-c4ccccc4)c(=O)n(Cc4cccs4)c3n2)c1 the results were Anthrax LT inh inconclusive and SmPrx2 inh >57.
Cc1cc(Nc2nc3c(c(=O)n(C)c(=O)n3C)n2C)n(-c2ccc(Cl)cc2)n1 was read as Anthrax LT inh inconclusive and SmPrx2 inh >57.
Screening Cc1nnc(NC(=O)CSc2nnc(CCc3nc4ccccc4[nH]3)n2C)s1 returned Anthrax LT inh -14.0% and SmPrx2 inh >57.
For CCNC(=O)CC1C(=O)N(c2ccc(OC)cc2)C(=O)N1Cc1ccc(OC)cc1 (centres undefined) the results were Anthrax LT inh 0.3% and SmPrx2 inh >57.
O=C(CSc1nc(O)c(C2CCCCC2)c(=O)[nH]1)NCC1CCCO1 (centres undefined) was read as Anthrax LT inh -5.9% and SmPrx2 inh >57.
`CCOc1ccc(C(=O)NCC2CCCO2)cc1` (centres undefined) gave Anthrax LT inh 16.3% and SmPrx2 inh >57.
`COc1ccc(S(=O)(=O)N2CCC(C(=O)Nc3nnc(CCN4CCCCC4)s3)CC2)cc1` gave Anthrax LT inh 2.8% and SmPrx2 inh >57.
For Cn1c(C(C#N)/C(=N\S(=O)(=O)c2cccs2)c2ccccc2)nc2ccccc21 (centres undefined) the results were Anthrax LT inh inconclusive and SmPrx2 inh >57.
Screening CCN(CC)S(=O)(=O)C1CCS(=O)(=O)C1 (centres undefined) returned Anthrax LT inh 5.8%.
For CCC(c1nnnn1C1CCCCC1)N1CCN(C2CCCC2)CC1 (centres undefined) the results were Anthrax LT inh -27.3% and SmPrx2 inh >57.
`COCCNS(=O)(=O)c1cccc2cccnc12` gave Anthrax LT inh 3.7% and SmPrx2 inh >57.

Arranged by molar mass (ascending): some entries from above
O=C1CCC(=O)N1CNc1cccnc1 was read as Anthrax LT inh -1.5%.
For CCOC(=O)c1c(N)sc2c(O)c(Br)ccc12 the results were Anthrax LT inh -13.5%.
c1ccc(N2CCN(c3nc4ccccc4n4nnnc34)CC2)cc1 was read as Anthrax LT inh inconclusive and SmPrx2 inh >57.
For Cc1cccc(CNc2nc(-c3cccc(NS(C)(=O)=O)c3)nc3ccccc23)c1 the results were Anthrax LT inh inconclusive and SmPrx2 inh >57.

Next section:
For C[C@H](CCC(=O)O)[C@H]1CC[C@H]2[C@@H]3[C@H](O)C[C@@H]4C[C@H](O)CC[C@]4(C)[C@H]3C[C@H](O)[C@]12C the results were Anthrax LT inh inconclusive.
COc1cc(C(=O)NCCc2nc3ccccc3n2C)cc(OC)c1OC was read as Anthrax LT inh inconclusive and SmPrx2 inh >57.
Screening Cn1c(=O)n(-c2ccccc2)c(=O)c2c3c(sc21)COC(C)(C)C3 returned Anthrax LT inh 10.6% and SmPrx2 inh >57.
Screening O=C(NCc1ccc2c(c1)OCO2)c1cc2c(s1)CSC2 returned Anthrax LT inh -3.1% and SmPrx2 inh >57.
`CC(C)NS(=O)(=O)c1ccc(OCC(=O)Nc2ccc3c(c2)OCO3)c(Cl)c1` gave Anthrax LT inh 1.8% and SmPrx2 inh >57.
Screening Cc1cc(C)n2c(SCC(=O)Nc3cc(C)on3)nnc2n1 returned Anthrax LT inh 0.4% and SmPrx2 inh >57.
Screening Nc1nc(COc2ccc3ccccc3c2)cs1 returned Anthrax LT inh inconclusive and SmPrx2 inh >57.
For O=C(NC(Cc1ccccc1)C(=O)N1CCN(c2ccccn2)CC1)c1ccco1 (centres undefined) the results were Anthrax LT inh 3.5% and SmPrx2 inh >57.
`CC(C)[C@@H](CC(=O)N[C@@H]1CCCC[C@H]1C(=O)N[C@H](CC(=O)N[C@@H](CCC(=O)O)CC(=O)O)Cc1c[nH]c2ccccc12)NC(=O)C[C@H](Cc1ccccc1)NC(=O)[C@@H]1CNCC[C@H]1N` gave Anthrax LT inh -23.3% and SmPrx2 inh >25.6.
For Cc1cnc(CNc2cc(-c3ccc(N(C)C)cc3)ncn2)cn1 the results were Anthrax LT inh inconclusive and SmPrx2 inh >57.
`COc1ccc(OC)c(NC(=O)CN2CCN(C(=O)c3ccco3)CC2)c1` gave Anthrax LT inh -8.3% and SmPrx2 inh >57.
For CCOc1ccc(/C(O)=C2/C(=O)C(=O)N(CCCn3ccnc3)C2c2cccs2)cc1Cl (centres undefined) the results were Anthrax LT inh 17.1% and SmPrx2 inh >57.
For COc1ccc(OC)c(NC(=O)c2c(NC(=O)CNCc3ccco3)sc3c2CCC3)c1 the results were Anthrax LT inh 14.5%.
Screening C=CCn1c(SCn2nnc3ccccc3c2=O)nnc1-c1ccc(Cl)cc1 returned Anthrax LT inh inconclusive and SmPrx2 inh >57.
`CC(C)C[C@@H](CC(=O)N[C@@H](CCC(=O)O)CC(=O)O)NC(=O)[C@@H]1CCCC[C@H]1NC(=O)C[C@H](CCCN)NC(=O)C[C@H](Cc1c[nH]c2ccccc12)NC(=O)[C@@H]1CCCC[C@H]1N` gave Anthrax LT inh -18.3% and SmPrx2 inh >57.
`COc1cc(OC)c(NC(=O)CS(=O)(=O)Cc2nc(-c3ccc(C)cc3)oc2C)cc1Cl` gave Anthrax LT inh -13.9% and SmPrx2 inh >57.
For O=C1N=c2ccccc2=C1c1sc(=S)n(CC2CCCO2)c1O (centres undefined) the results were Anthrax LT inh inconclusive.
For CCc1cc2c(nc1CC)CCN(CC/C(C)=N/OC[C@@H](O)[C@@H]1O[C@@H]3OC(C)(C)O[C@@H]3[C@H]1O)C2 the results were Anthrax LT inh 3.2%[8 µM].
For CC(O)CNc1nc2c(c(=O)n(C)c(=O)n2C)n1C/C=C/c1ccccc1 (centres undefined) the results were Anthrax LT inh -6.3% and SmPrx2 inh >57.
`CCOC(=O)NCc1ccc(S(=O)(=O)Nc2ccccc2C)cc1` gave Anthrax LT inh -3.0% and SmPrx2 inh >57.
Cc1cc(C(=O)OCC(=O)NC2CCS(=O)(=O)C2)c(C)n1-c1ccccc1 (centres undefined) was read as Anthrax LT inh inconclusive and SmPrx2 inh >57.
CCC(C)OC(=O)c1[nH]c2c(c1C)C(=O)CC(c1ccc(N(C)C)cc1)C2 (centres undefined) was read as Anthrax LT inh inconclusive and SmPrx2 inh >57.
`COC(=O)C1=C(CSc2nncn2C)NC(=O)NC1c1cc(C)ccc1C` (centres undefined) gave Anthrax LT inh 2.6%.
For NC(=O)c1ccc(-n2nnnc2SCc2ccccc2)cc1 the results were Anthrax LT inh -13.7% and SmPrx2 inh >57.
COc1cccc(N2CCN(C(=O)c3ccc(N4C(=O)NC5CC4(C)Oc4ccccc45)cc3)CC2)c1 (centres undefined) was read as Anthrax LT inh -5.6% and SmPrx2 inh >57.
For Cc1cc2oc(C(=O)N(Cc3ccco3)C3CCS(=O)(=O)C3)cc(=O)c2cc1Cl (centres undefined) the results were Anthrax LT inh 4.1% and SmPrx2 inh >57.
Cn1cc(-c2nc3cnc(Oc4ccccc4)nc3n(C)c2=O)c2ccccc21 was read as Anthrax LT inh inconclusive and SmPrx2 inh >57.
Screening O=S(=O)(NCCc1cn2ccccc2n1)c1cccs1 returned Anthrax LT inh 8.7% and SmPrx2 inh >57.
Screening CN(C)C=Nc1nonc1-c1ncn[nH]1 returned Anthrax LT inh -25.3% and SmPrx2 inh >57.
CC(C(N)=O)N1CC(c2ccccc2)CC1=O (centres undefined) was read as Anthrax LT inh -10.2% and SmPrx2 inh >57.
Clc1ccc(-c2nnc(-c3ccccc3Cl)o2)cc1 was read as Anthrax LT inh -5.3% and SmPrx2 inh >57.
`CCOCCCNC(=O)C(c1ccc(C)cc1)N(Cc1ccc2c(c1)OCO2)C(=O)CNC(C)=O` (centres undefined) gave Anthrax LT inh 16.7% and SmPrx2 inh >57.
Cc1cccc(C(=O)Nc2ncc(CN3CCOCC3)s2)c1 was read as Anthrax LT inh 3.5% and SmPrx2 inh >57.
For COc1ccc(C(=O)COc2ccc(NC(C)=O)cc2)cc1 the results were Anthrax LT inh -9.2% and SmPrx2 inh >57.
For O=C(OCCCC(=O)N1CCOCC1)c1ccccc1 the results were Anthrax LT inh 14.8% and SmPrx2 inh >57.
Cc1ccc(S(=O)(=O)CCc2nnc(NC(=O)c3ccccn3)s2)cc1 was read as Anthrax LT inh 3.6% and SmPrx2 inh >57.
Cc1ccccc1-c1nc(-c2cccnc2)no1 was read as Anthrax LT inh -23.1% and SmPrx2 inh >57.
For CCCOc1ccc(N2C(=O)CC(N3CCC(C(=O)OCC)CC3)C2=O)cc1 (centres undefined) the results were Anthrax LT inh -8.8%.
O=C(O)/C=C\C(=O)Nc1cccc2c1-c1ccccc1C2=O was read as Anthrax LT inh -4.8%[8 µM] and SmPrx2 inh >57.
For O=C1CC(c2ccccc2)n2nc(NC(=O)c3cccnc3)nc2N1 (centres undefined) the results were Anthrax LT inh -4.2% and SmPrx2 inh >57.
For COc1ccc(OCc2nc(N)nc(Nc3cccc(C)c3C)n2)cc1 the results were Anthrax LT inh -6.0% and SmPrx2 inh >57.
`COC(=O)CSc1nnc(-c2ccccc2O)n1-c1ccc(C)cc1` gave Anthrax LT inh -12.7% and SmPrx2 inh >57.
For COc1ccc(S(=O)(=O)N(CCc2ccccc2)CC(=O)O)cc1OC the results were Anthrax LT inh -4.2%.
Cc1ccc(S(=O)(=O)Nc2nc3ccccc3nc2NCc2ccco2)cc1 was read as Anthrax LT inh inconclusive and SmPrx2 inh >57.
`Cc1cccc(NC(=O)CSc2nnc(-c3ccncc3)n2C)c1` gave Anthrax LT inh 0.0% and SmPrx2 inh >57.
`N#Cc1c(NC(=O)c2ccc(Br)o2)n(-c2ccccc2)c2nc3ccccc3nc12` gave Anthrax LT inh inconclusive and SmPrx2 inh >57.
For O=C1c2ccccc2C(=O)N1C[C@]1(C(=O)O)NCCS1(=O)=O the results were Anthrax LT inh 10.5%[8 µM] and SmPrx2 inh >57.
Screening COc1cc(-c2nc(-c3ccc(NC(=O)c4ccc5c(c4)OCO5)cc3)no2)cc(OC)c1OC returned Anthrax LT inh inconclusive and SmPrx2 inh >57.
For CCOc1ccc(S(=O)(=O)N(CC(=O)O)c2ccccc2)cc1 the results were Anthrax LT inh -8.8%.
CC(=O)NC1CC2CCCC(C1)N2CC(=O)Nc1ccccc1 (centres undefined) was read as Anthrax LT inh 0.0% and SmPrx2 inh >57.
CCCC(=O)c1cc(F)c(N2CCN(C(=O)OCC)CC2)cc1C was read as Anthrax LT inh -13.5%.
`O=C(NCCCNC(=O)NC1CCCCC1)NC1CCCCC1` gave Anthrax LT inh -5.7% and SmPrx2 inh >57.
Screening COc1cccc(OCC(=O)Nc2ccccc2C(N)=O)c1 returned SmPrx2 inh >57.
`COc1ccc(NC(=O)c2c(F)c(F)c(F)c(F)c2F)cc1Cl` gave Anthrax LT inh -10.6% and SmPrx2 inh >57.
Screening O=c1c2ccccc2nc(CSc2ncnc3nc[nH]c23)n1-c1ccccc1 returned Anthrax LT inh inconclusive and SmPrx2 inh >57.
Screening O=C(NCc1cccnc1)c1cn(-c2ccccc2)nc1-c1cccs1 returned Anthrax LT inh -3.0% and SmPrx2 inh >57.
Screening O=C(NCCN1CCN(Cc2ccccc2)CC1)C1CC(=O)N(C2CCCC2)C1 (centres undefined) returned Anthrax LT inh -4.1% and SmPrx2 inh >57.
For COc1ccccc1NC(=O)CCSc1nnnn1C the results were Anthrax LT inh 0.5% and SmPrx2 inh >57.
`Cc1cc(NC(=O)CC23CC4CC(C2)CC(CC(=O)Nc2cc(C)on2)(C4)C3)no1` gave Anthrax LT inh 12.5% and SmPrx2 inh >57.
O=C(CCn1c(=O)oc2ccccc21)N1CCN(c2ccccc2Cl)CC1 was read as Anthrax LT inh -8.2% and SmPrx2 inh >57.
Cc1ccc(NCCNc2ccc(C)cc2)cc1 was read as Anthrax LT inh 5.7% and SmPrx2 inh >57.

Random excerpt: three compounds from above, in no set order.
For COc1ccc(S(=O)(=O)N(CCc2ccccc2)CC(=O)O)cc1OC the results were Anthrax LT inh -4.2%.
For C[C@H](CCC(=O)O)[C@H]1CC[C@H]2[C@@H]3[C@H](O)C[C@@H]4C[C@H](O)CC[C@]4(C)[C@H]3C[C@H](O)[C@]12C the results were Anthrax LT inh inconclusive.
Screening C=CCn1c(SCn2nnc3ccccc3c2=O)nnc1-c1ccc(Cl)cc1 returned Anthrax LT inh inconclusive and SmPrx2 inh >57.

An excerpt, so the mix of outcomes need not match the whole.
